# Screening data: PubChem, several laboratories
# Insulin prom inh – inhibitors of insulin promoter-driven GFP, primary screen, imaging, TRM-6 cells (human fetal islet line), eGFP reporter, cell count | reporter expression induced with tamoxifen | inhibition, % at 2 µM | actives 0.9% (n = 130,000) | AID 1273, 2008;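 active = inhibition above the mean plus 3 SD, with well images judged a real hit on visual review, cut at about 60% in these data, passing the limit was not always enough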
# HSV augment – enhancers of HSV replication in host cells, fold increase, host cell viability; actives 0.005% (n = 220,000); AID 1956, 2009; maximum fold increase; HSV replication augmentation in cells;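 active = peak rise of 1.5-fold or more in the series; tested in PC3 cells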;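 note: first round at 10 µM; read as green reporter fluorescence; hits show the peak of a series up to 25 µM; 1 = signal of infected wells without compound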
# GALR2 ag – GALR2 receptor agonists, primary screen, cell-based | Galanin receptor type 2 (Homo sapiens), O43603 | activation, %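 (tested at 5 µM)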 | AID 803, 2007 | actives 0.48% (n = 140,000) | GALR2-expressing cells, agonist activation read-out;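 active = above mean plus 3 SD of all compounds, about 5% in these data, not always enough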;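 note: 0% = vehicle buffer wells and 100% = reference agonist at full effect; tested in CHO reporter cells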
# Target sequence (O43603 whole entry, looked up): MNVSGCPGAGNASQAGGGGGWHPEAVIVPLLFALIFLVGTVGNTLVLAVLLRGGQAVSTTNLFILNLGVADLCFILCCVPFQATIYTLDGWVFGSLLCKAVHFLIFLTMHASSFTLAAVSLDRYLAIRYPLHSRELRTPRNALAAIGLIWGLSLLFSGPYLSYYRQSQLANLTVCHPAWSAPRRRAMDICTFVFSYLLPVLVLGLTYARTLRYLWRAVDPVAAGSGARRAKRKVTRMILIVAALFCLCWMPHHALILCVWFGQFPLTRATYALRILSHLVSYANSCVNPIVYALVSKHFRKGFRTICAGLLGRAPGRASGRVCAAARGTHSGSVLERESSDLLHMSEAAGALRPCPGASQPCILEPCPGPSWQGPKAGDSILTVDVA
# PKD1 kinase inh – inhibitors of human PKD1 kinase, biochemical, fluorescence polarization; Serine/threonine-protein kinase D1 (Homo sapiens), Q15139; PKD1 kinase fluorescence polarization assay; inhibition, %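 (about 10 µM by stock and volumes)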; actives 0.056% (n = 200,000);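 active = inhibition of 50% or more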;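 note: controls were vehicle for no effect and a reference inhibitor for full effect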
# RGS16-Gao HTS – modulators of RGS16 binding to Galphao, primary screen, biochemical, human proteins, multiplexed bead flow cytometry; bead-based flow cytometry RGS16-Galphao binding, fluorescence; actives lie on both sides; AID 1441, 2008; Regulator of G-protein signaling 16 (Homo sapiens) + Guanine nucleotide-binding protein …; binding response (% of control), % at 10 µM; actives 0.38% (n = 220,000);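 active = below 25% or above 175%, edge rows of some plates excepted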;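 note: Galphao activated by GDP with aluminum fluoride before binding; 100% = wells without compound and 0% = beads without RGS; some results beyond the cut were filed as inactive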
# Target sequence (O15492 whole entry, looked up): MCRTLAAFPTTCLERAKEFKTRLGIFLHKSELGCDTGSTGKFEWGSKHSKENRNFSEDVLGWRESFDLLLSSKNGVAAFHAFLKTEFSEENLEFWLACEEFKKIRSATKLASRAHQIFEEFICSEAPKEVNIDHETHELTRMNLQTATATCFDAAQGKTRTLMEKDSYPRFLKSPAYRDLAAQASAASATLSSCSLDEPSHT
# Target sequence (P09471 whole entry, looked up): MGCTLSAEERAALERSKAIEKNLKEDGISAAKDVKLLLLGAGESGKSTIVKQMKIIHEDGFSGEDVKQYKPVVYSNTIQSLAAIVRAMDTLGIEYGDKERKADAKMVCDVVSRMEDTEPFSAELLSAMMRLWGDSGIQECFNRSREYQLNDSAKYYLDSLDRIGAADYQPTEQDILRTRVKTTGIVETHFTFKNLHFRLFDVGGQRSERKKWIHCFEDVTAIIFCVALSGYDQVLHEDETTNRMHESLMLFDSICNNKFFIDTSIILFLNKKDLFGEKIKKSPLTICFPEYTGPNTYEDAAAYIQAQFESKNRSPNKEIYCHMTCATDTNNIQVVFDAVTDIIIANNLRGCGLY
# Insulin prom inh cell count – also measured in Insulin prom inh; calls as there; normalized cell count, %; measured here: cell count, toxicity; reference of the scale not given here;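 cells exposed to compound for 48 h; stained nuclei by imaging scaled within each plate; lower means fewer cells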
# HSV augment primary fold – also measured in HSV augment; calls as there; fold increase; compound at 10 µM; measured here: primary screen fold increase 10 uM; tested in PC3 cells;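 GFP signal in the first replicate; 1 = infected wells without compound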
# The depositor's hits bear a star; i = inactive; . = not tested or not shown.
SMILES	Insulin prom inh	Insulin prom inh cell count	HSV augment	HSV augment primary fold	GALR2 ag	PKD1 kinase inh	RGS16-Gao HTS
COc1cc(OC)c2c(-c3ccccc3)cc(=O)oc2c1C(CC(=O)N1CCCC1)c1ccc2c(c1)OCO2 (stereo unspecified)	.	.	i	0.71	.	.	96.5
O=C(/C=C/c1c(Cl)nc2ccccn12)Nc1ccc(F)cc1	3.7	149.4	i	0.86	.	2.5	105.5
O=C(OCC(=O)c1ccc[nH]1)c1ccc(S(=O)(=O)N2CCCCCC2)cc1	25.6	89.2	i	0.99	-3.5	-15.4	96.2
COc1ccc(/C=C/C(=O)OCC(=O)NC(=O)NC(C)(C)C)cc1	-33.3	105.6	i	0.98	.	-7.7	97.9
CCn1cc(CNC(=O)/C=C/c2ccc([N+](=O)[O-])cc2)cn1	.	.	i	0.97	0.4	7.2	100.3
Cc1ccc(/C=C/C(=O)NC2CCCCCCC2)o1	0.0	103.5	i	0.91	-1.4	-4.9	89.5
Cc1ccc2nc(N(CCCN(C)C)C(=O)c3cc4ccccc4oc3=O)sc2c1	-21.4	101.2	i	0.96	0.7	-18.0	109.2
O=C(COC(=O)c1ccc2c(=O)n3c(nc2c1)CCC3)Nc1ccc(OC(F)F)cc1	.	.	i	0.94	.	-0.8	100.2
COc1ccc(/C=N/NC(=O)Cn2c(Cc3ccc(OC)c(OC)c3)nc3ccccc32)cc1OC	.	.	i	0.99	-1.4	2.3	99.7
COc1ccc(Cc2nnc(N/N=C/c3ccc(N(C)C)cc3)[nH]c2=O)cc1OC	.	.	i	1.25	.	.	98.3
Cc1ccc(-c2noc(CN(C(=O)C(c3ccccc3)c3ccccc3)C(C)C)n2)cc1	2.8	136.6	i	0.97	-2.8	-0.6	101.4
Fc1cccc(NC(=S)N2CCCC2)c1	25.0	115.2	i	1.06	-2.4	-1.9	103.5

# Full records from above. Screens in order: Insulin prom inh	Insulin prom inh cell count	HSV augment	HSV augment primary fold	GALR2 ag	PKD1 kinase inh	RGS16-Gao HTS
# `COc1ccc(Cc2nnc(N/N=C/c3ccc(N(C)C)cc3)[nH]c2=O)cc1OC` reads .	.	i	1.25	.	.	98.3
# `O=C(/C=C/c1c(Cl)nc2ccccn12)Nc1ccc(F)cc1` reads 3.7	149.4	i	0.86	.	2.5	105.5
# `O=C(COC(=O)c1ccc2c(=O)n3c(nc2c1)CCC3)Nc1ccc(OC(F)F)cc1` reads .	.	i	0.94	.	-0.8	100.2
# `COc1cc(OC)c2c(-c3ccccc3)cc(=O)oc2c1C(CC(=O)N1CCCC1)c1ccc2c(c1)OCO2` (stereo unspecified) reads .	.	i	0.71	.	.	96.5
# `O=C(OCC(=O)c1ccc[nH]1)c1ccc(S(=O)(=O)N2CCCCCC2)cc1` reads 25.6	89.2	i	0.99	-3.5	-15.4	96.2

# Other structures follow.
SMILES	Insulin prom inh	Insulin prom inh cell count	HSV augment	HSV augment primary fold	GALR2 ag	PKD1 kinase inh	RGS16-Gao HTS
CC(C)C(C(=O)Nc1ccc(S(=O)(=O)N2CCOCC2)cc1)N1C(=O)c2ccccc2C1=O (stereo unspecified)	-3.6	117.4	i	0.96	-1.0	-4.0	90.5
CCCCCC(=O)N1CCCC(c2nc(-c3ccc(OC)cc3)no2)C1 (stereo unspecified)	-77.1	244.0	i	0.93	-1.4	-9.9	66.7
COc1ccc(-c2n[nH]c(=S)n2-c2ccc3c(c2)OCCO3)cc1OC	53.3	74.3	i	1.05	.	7.6	113.5
COc1ccc(S(=O)(=O)N(C)CC(=O)N2CCN(c3ccc(F)cc3)CC2)cc1OC	28.6	161.7	i	0.96	-1.2	1.3	110.3
CC1CCCCN1CC(=O)Nc1ccc(Oc2ccccc2)cc1 (stereo unspecified)	-21.4	114.9	i	0.95	-1.6	-7.2	103.4
Cc1cc(C)c(-n2c(SCc3nc4ccccc4s3)n[nH]c2=O)c(C)c1	.	.	i	0.97	.	.	95.0
CCOC(=O)c1ccc2nc(C)c3c(c2c1)OC(C)C3 (stereo unspecified)	-30.6	88.1	i	1.01	0.3	0.5	104.5
COc1ccc(NC(=O)Cn2cnc3ccccc3c2=O)cc1OC	.	.	i	0.96	.	-3.7	113.0
Cc1ccc2oc(-c3ccco3)cc(=O)c2c1	.	.	i	0.96	.	-1.8	101.0
CCOC(=O)COc1ccc2c(=O)cc(-c3ccccc3)oc2c1	.	.	i	0.92	.	.	94.0
NC(=O)NC(=O)COC(=O)CC12CC3CC(CC(C3)C1)C2	.	.	i	1.03	.	-8.7	101.4
N#Cc1cn(-c2ccccc2)nc1-c1cc2ccccc2oc1=O	0.0	151.3	i	0.913	0.3	-4.6	92.5
COC(=O)C1=C(C)NC(C)=C(C(=O)OC)C1c1ccc(-c2cccc(Cl)c2Cl)o1	.	.	i	1.04	-0.3	-1.9	64.6
O=C(Cc1ccccc1)NCC(=O)OCc1ccc([N+](=O)[O-])cc1	36.4	94.2	i	1.07	-0.9	0.1	86.3
COCCNC(=O)C(c1cccnc1)N(Cc1ccccc1)C(=O)Cn1nnc2ccccc21 (stereo unspecified)	.	.	i	0.87	.	2.9	101.5
CC1CCC(NC(=O)CN2CCC(n3nnc4cc(F)ccc43)CC2)CC1 (stereo unspecified)	.	.	i	0.96	-1.9	-7.6	113.2
Cc1[nH]c2ccc(F)cc2c1CCN(Cc1cccnc1)C(=S)Nc1ccc(F)cc1	-55.6	136.2	i	0.86	.	-0.8	107.8
COc1ccc(C(=O)c2ccc([N+](=O)[O-])cc2Cl)cc1	.	.	i	0.98	.	-2.9	111.0
CCCCN(CCCC)CC(O)COc1ccccc1Br (stereo unspecified)	-42.4	101.0	i	0.84	-0.5	-1.5	102.3
Cc1cc(C)n2nc(S(=O)(=O)N(CC(C)C)CC(C)C)nc2n1	0.0	94.9	i	0.94	-1.6	-0.5	101.7
CCCCCCC(C)n1[nH]c(=O)cc1N (stereo unspecified)	.	.	i	1.05	.	.	105.2
O=C(CSc1nc2ccccc2o1)N1N=C(c2cccs2)CC1c1ccc(F)cc1 (stereo unspecified)	37.8	116.6	i	0.96	-1.5	2.0	98.5
CCOC(=O)C1=C(N)OC2=C(C(=O)CC(C)(C)C2)C1c1cc(CSc2nnnn2C)cs1 (stereo unspecified)	.	.	i	1.1	.	-1.0	99.0
CC(=O)Nc1ccc(NC(=O)C2CCC(CNS(=O)(=O)c3cccc4nsnc34)CC2)cc1 (stereo unspecified)	.	.	i	0.88	.	-9.6	102.9
Cc1cccc(N=C2NC(=O)/C(=C\c3cccs3)S2)c1	0.0	97.7	i	1	-1.1	2.3	134.2
CC(=O)c1ccc(NC(=O)C2C3C=CC(C3=C(c3ccccc3)c3ccccc3)C2C(=O)O)cc1 (stereo unspecified)	0.0	109.8	i	0.87	.	-2.0	95.1
COc1ccc(C(CC(=O)O)NC(=O)Nc2ccccc2)cc1OC (stereo unspecified)	27.3	95.2	i	0.96	.	-7.8	107.9
COc1ccc(C(=O)C2CCCN(C/C=C/c3ccccc3OC)C2)c(OC)c1 (stereo unspecified)	.	.	i	0.86	.	2.9	96.9
CC1(C)Cc2nc3oc4c(NCc5ccccc5)ncnc4c3cc2CO1	.	.	.	.	-0.9	-5.7	100.8
CC(C)(C)NC(=O)[C@H]1CC[C@H]2[C@@H]3CC[C@H]4NC(=O)C=C[C@]4(C)[C@H]3CC[C@]12C	.	.	i	0.72	.	.	103.9
COc1ccc(N(Cc2ccccc2)C(=O)CSc2nnc(Cn3nnc4ccccc43)o2)cc1	-28.6	118.6	i	0.99	-0.4	-11.7	104.6
CC(=O)Nc1ccc(-c2nnc(SCc3c(C)cc(C)cc3C)n2C)cc1	.	.	i	1.01	-2.6	4.2	100.8
CCN(Cc1ccccc1)C(=O)C1CCN(Cc2ccc(OC)c(OC)c2OC)CC1	-36.7	130.3	i	0.9	-2.2	-12.3	100.6
C=COCCNC(=O)C(=O)NCC(C)C	29.6	94.4	i	1.03	-1.1	0.4	.
Brc1ccccc1C1=Nn2c(nnc2-c2ccccc2)SC1	.	.	i	0.783	-3.1	-2.3	101.3
Clc1ccc(OCc2nnnn2-c2ccccc2)cc1	-20.0	129.4	i	0.92	-1.0	-7.0	102.1
O=c1c2cnn(-c3ccccc3)c2nnn1/N=C/c1cccnc1	13.5	51.9	i	0.973	-0.9	-1.6	99.3
CC(=O)NCCn1c(C)cc2ccccc21	.	.	i	1	.	-6.0	99.2
CCOc1ccc(OCC)c(NC(=O)C2CCN(c3ncccn3)CC2)c1	22.9	26.8	i	0.87	-2.0	-11.0	104.2
NNC(=O)CN1CCCc2ccccc21	-11.1	64.9	i	0.8	.	4.7	56.8
O=C(CN1C(=O)c2cccc3cccc1c23)Nc1ccc2c(c1)OCO2	0.0	100.9	i	0.75	-0.8	0.1	93.8
CCOC(=O)N1CCN(c2cc(=O)n(C3CCCCC3)c(=O)[nH]2)CC1	.	.	i	0.96	-3.0	-2.3	98.3
CC(=O)Nc1nc(C)c(S(N)(=O)=O)s1	-10.0	72.4	.	.	-1.5	0.7	100.9
COc1ccc2c(c1OC)CN(C)CCc1cc3c(cc1C(=O)C2)OCO3	17.4	201.3	i	0.97	.	-5.4	101.0
CCCCn1c(SCc2nc3ccccc3s2)nc2cc(S(N)(=O)=O)ccc21	45.8	115.4	i	1.01	1.6	1.3	90.7
O=C1CSC(c2cccnc2)N1CCc1ccccn1 (stereo unspecified)	.	.	i	1.01	.	.	99.9
Cc1ccc(C(C(=O)NCc2ccco2)N(C(=O)CNC(=O)c2cccs2)c2c(C)cccc2C)cc1 (stereo unspecified)	.	.	i	0.91	0.1	-2.4	46.0
C/C(Sc1nnc(Cc2ccccc2)o1)=C(/O)c1ccccc1	64.3	69.6	i	0.99	-0.2	10.1	105.7
Cc1cc(C)c(-c2csc(NC(=O)c3cc([N+](=O)[O-])ccc3N3CCOCC3)n2)c(C)c1	-18.9	122.9	i	0.94	0.9	-8.9	107.4
COc1ccc(-n2c(N)c(C#N)c3ccc([N+](=O)[O-])cc3c2=O)cc1	.	.	i	1.1	-2.7	-3.9	102.7
Cn1c(SCc2nc3ccccc3[nH]2)nnc1-c1cccnc1	-48.4	148.9	i	0.95	-2.7	5.9	102.3
Nc1ccc(Nc2nc(-c3ccncc3)cs2)cc1	71.4	136.9	i	0.64	-1.0	-3.6	90.4
CC1(c2ccccc2)NC(=O)N(CC(=O)Nc2cccc(C#N)c2)C1=O (stereo unspecified)	-3.9	120.3	i	0.79	0.1	4.8	100.0
Cc1c(N=Cc2c(O)n(C)c(=O)c3ccccc23)c(=O)n(-c2ccccc2)n1C	3.2	99.5	i	1.07	-2.0	1.7	103.7
Cc1cc(=O)oc(C)c1C(=O)NCC(C)NC(=O)c1c(C)cc(=O)oc1C (stereo unspecified)	.	.	i	1.02	-3.1	4.5	93.5
Cc1ccc(CNC(=O)C2CC(c3cccc(F)c3)=NO2)cc1 (stereo unspecified)	.	.	i	0.71	.	.	105.5
OCc1nc(CO)n(Cc2ccccc2)n1	20.0	89.5	i	0.83	-1.1	-8.7	109.1
CCOc1cc(S(=O)(=O)N2CCCC2)ccc1Cl	32.1	75.0	i	0.91	-0.9	-4.9	110.9
CCC(=O)N1CCc2cc(Br)cc(S(=O)(=O)CC(=O)OC)c21	.	.	i	0.87	-1.4	-2.7	85.0
Cc1ccc(S(=O)(=O)Nc2cccc(Cl)c2)cc1NC(=O)c1cccnc1	.	.	i	1.05	.	6.3	98.8

# The results go on:
SMILES	Insulin prom inh	Insulin prom inh cell count	HSV augment	HSV augment primary fold	GALR2 ag	PKD1 kinase inh	RGS16-Gao HTS
CC(CCc1ccco1)NC(=O)Cn1nc(Cc2ccncc2)c2ccccc2c1=O (stereo unspecified)	.	.	i	0.88	-3.7	-7.4	90.2
CC(C)N(c1ccccc1)c1ccc(NC(=O)COC(=O)CCN2C(=O)c3cccc([N+](=O)[O-])c3C2=O)cc1	36.7	50.9	i	1.08	-1.4	-10.3	81.9
O=[N+]([O-])c1cc(C(F)(F)F)cc([N+](=O)[O-])c1NCCNC(=S)Nc1cccc(F)c1	.	.	i	0.99	.	.	101.7
COc1ccc(-c2c3c(=O)n(C)c(=O)n(C)c3cn2N2CCOCC2)cc1	16.7	129.2	i	0.83	-3.0	-9.6	96.8
